Screens (PubChem BioAssay)
AF4-AF9 inh = blocks AF4 peptide binding to human AF9; P42568; AlphaScreen, biotin-AF4 peptide binding to FLAG-AF9; inhibition, % at 10 µM; 0.47% of 350,000 active; AID 651704;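 active means every replicate reaching a set inhibition limit, whatever the replicate mean, cut at about 25% in these data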;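 further: 0% = plate neutral control median and 100% = total signal loss; the record names both 10 and 1 µM as test concentration; the first replicate is given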
Target sequence (P42568 whole entry, looked up): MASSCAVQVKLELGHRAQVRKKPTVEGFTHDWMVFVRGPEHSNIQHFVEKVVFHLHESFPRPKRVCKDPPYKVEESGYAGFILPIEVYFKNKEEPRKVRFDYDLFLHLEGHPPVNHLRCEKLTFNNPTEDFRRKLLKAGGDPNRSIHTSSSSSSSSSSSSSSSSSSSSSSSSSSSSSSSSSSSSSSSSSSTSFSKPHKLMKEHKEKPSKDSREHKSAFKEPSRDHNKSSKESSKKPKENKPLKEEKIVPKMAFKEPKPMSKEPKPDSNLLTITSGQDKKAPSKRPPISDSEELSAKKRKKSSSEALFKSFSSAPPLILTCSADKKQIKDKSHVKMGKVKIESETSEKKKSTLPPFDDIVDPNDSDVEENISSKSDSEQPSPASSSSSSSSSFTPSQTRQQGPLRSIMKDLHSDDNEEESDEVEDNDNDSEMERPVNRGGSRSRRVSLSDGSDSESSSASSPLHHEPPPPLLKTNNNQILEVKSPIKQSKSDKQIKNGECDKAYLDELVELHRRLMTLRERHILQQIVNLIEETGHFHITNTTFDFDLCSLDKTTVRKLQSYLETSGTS
rRNA inh HTS = selective bacterial rRNA inhibition in E. coli | GFP signal change (wild-type ribosome), % (no concentration beside the values) | E. coli WT GFP vs humanized-ribosome RFP mutants, fluorescence, 24 h; stronger effect = lower value; DMSO median 0, no signal -100 | AID 720706 | 1.6% of 350,000 active;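 active means significant combined selectivity score with lowered wild-type GFP, culture density cut under 30%, mutant RFP and density less affected; inactive means any of these conditions unmet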; further: one replicate is shown; some compounds called inactive have numbers as strong as hits
FGF22 binding = binders of recombinant human FGF22 by thermal shift | Q9HCT0 | SYPRO orange fluorescence; percent of sucrose octasulfate shift, DMSO zero | calls only at 9.99 µM | 1.5% of 340,000 active | AID 651658;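 active means melting point raised past a set limit in the mean and every replicate; three in four hits are not shown here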
Target sequence (Q9HCT0 whole entry, looked up): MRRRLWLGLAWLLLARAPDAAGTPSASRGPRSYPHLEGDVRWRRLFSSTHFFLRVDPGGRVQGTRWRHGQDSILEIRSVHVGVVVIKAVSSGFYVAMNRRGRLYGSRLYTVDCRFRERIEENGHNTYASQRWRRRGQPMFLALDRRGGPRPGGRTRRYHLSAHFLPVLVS
rRNA inh HTS OD600 = recorded beside rRNA inh HTS, whose call it bears; OD600 change, %; measured here: OD600 growth;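 optical density of the mix in the first replicate; 0 = DMSO median and -100 = no signal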
rRNA inh HTS RFP = also measured in rRNA inh HTS; calls as there; RFP signal change, %; measured here: RFP humanized mutant strains;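 first replicate; 0 = DMSO median and -100 = no signal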
Starred values were filed as active, the others as inactive; i = inactive; & = joins results of further samples.

Start of the listing, in advance, 6 compounds:
SMILES	AF4-AF9 inh	rRNA inh HTS	rRNA inh HTS OD600	rRNA inh HTS RFP	FGF22 binding
Cc1noc(C)c1S(=O)(=O)Nc1ccc2c(c1)C(=O)N([C@H](C)CO)C[C@@H](C)[C@@H](CN(C)S(=O)(=O)c1ccc(Cl)cc1)OCCCC[C@@H](C)O2	3.6	-1	-1	0.2	i
COCC(=O)N1C[C@H](C)[C@H](OC)CN(C)C(=O)c2cc(NC(=O)c3cc(C)on3)ccc2OC[C@@H]1C	-1.4	1	2	0.8	i
O=C(C[C@@H]1CC[C@@H](NC(=O)Nc2ccc(C(F)(F)F)cc2)[C@@H](CO)O1)NCc1cc(F)cc(F)c1	-0.5	3	3	4.5	i
O=C(CCN1CCCCC1)NCC[C@@H]1CC[C@@H](NC(=O)Cc2cccnc2)[C@@H](CO)O1	-1.4	0	1	0.2	i
O=C(C1CCOCC1)N1CC2(C1)[C@H](c1ccccc1)[C@H](CO)N2Cc1ccc(Cl)cc1	3.4	-6	-14	6.9	i
C[C@@H]1CN([C@H](C)CO)C(=O)Cc2cc(NC(=O)Cc3ccccc3)ccc2O[C@H]1CN(C)CC1CC1	-2.7	-2	7	-2.4	i

The list itself, previewed entries included:
SMILES	AF4-AF9 inh	rRNA inh HTS	rRNA inh HTS OD600	rRNA inh HTS RFP	FGF22 binding
Cc1noc(C)c1S(=O)(=O)Nc1ccc2c(c1)C(=O)N([C@H](C)CO)C[C@@H](C)[C@@H](CN(C)S(=O)(=O)c1ccc(Cl)cc1)OCCCC[C@@H](C)O2	3.6	-1	-1	0.2	i
COCC(=O)N1C[C@H](C)[C@H](OC)CN(C)C(=O)c2cc(NC(=O)c3cc(C)on3)ccc2OC[C@@H]1C	-1.4	1	2	0.8	i
O=C(C[C@@H]1CC[C@@H](NC(=O)Nc2ccc(C(F)(F)F)cc2)[C@@H](CO)O1)NCc1cc(F)cc(F)c1	-0.5	3	3	4.5	i
O=C(CCN1CCCCC1)NCC[C@@H]1CC[C@@H](NC(=O)Cc2cccnc2)[C@@H](CO)O1	-1.4	0	1	0.2	i
O=C(C1CCOCC1)N1CC2(C1)[C@H](c1ccccc1)[C@H](CO)N2Cc1ccc(Cl)cc1	3.4	-6	-14	6.9	i
C[C@@H]1CN([C@H](C)CO)C(=O)Cc2cc(NC(=O)Cc3ccccc3)ccc2O[C@H]1CN(C)CC1CC1	-2.7	-2	7	-2.4	i
COCC(=O)Nc1ccc2c(c1)C(=O)N(C)C[C@H](OC)[C@H](C)CN(Cc1cccnc1)[C@@H](C)CO2	0.0	4	2	-2.0	i
CCN(CC)C(=O)[C@H]1C[C@H](CC(=O)NCCc2ccccn2)C(=O)N2CCc3c([nH]c4cc(CCC(=O)N(C)C)ccc34)[C@]12C	-5.1	15	4	1.8	i
CO[C@@H]1CN(C)C(=O)c2ccc(NC(=O)Nc3ccccc3)cc2OC[C@@H](C)N(C(=O)Nc2c(C)noc2C)C[C@@H]1C	1.8	1	7	0.7	i
C[C@@H]1CN([C@H](C)CO)C(=O)Cc2cc(NC(=O)NC3CCCCC3)ccc2O[C@H]1CN(C)C(=O)NC1CCCCC1	-3.1	2	0	-1.0	i
C=CCSc1nnc(CCc2ccccc2)n1N	-13	9	11	1.1	i
CO[C@H]1CN(C)C(=O)c2ccc(NC(C)=O)cc2OC[C@@H](C)N(Cc2ccccc2F)C[C@H]1C	1.2	1	2	2.2	i
C[C@@H]1CN([C@@H](C)CO)C(=O)c2cc(C#CC3CCCC3)cnc2O[C@H]1CN(C)C(=O)C1CCC1	-3.6	2	8	1.4	i
CCCC#Cc1ccc([C@@H]2[C@H](CO)N3CCCCN(S(=O)(=O)c4ccccc4C)C[C@@H]23)cc1	10	-42	-46	-9.3	i
C[C@@H]1CN([C@H](C)CO)C(=O)c2cccc(NC(=O)c3nc4ccccc4s3)c2O[C@@H]1CN(C)Cc1ccc(C(F)(F)F)cc1	0.0	4	6	-1.3	i
C/C=C/c1cccc(-c2nc(C(=O)N3CCN(C)CC3)cc3c2[C@H](CCO)N(C(=O)NC(C)C)C3)c1	0.7	1	3	3.3	i
CC12CCC(=O)C=C1CCC1C2C(O)CC2(C)C(c3csc(N)n3)CCC12 (configuration not stated)	-2.2	-32	-48	5.2	i
C[C@@H]1CN([C@@H](C)CO)C(=O)c2cc(NC(=O)CCC(F)(F)F)ccc2O[C@H]1CN(C)CC1CCCCC1	-4.1	-2	9	2.0	i
CCC[C@H]1CN(c2ccc(Br)cc2)C(=O)[C@@H]1CC(=O)Nc1ccccc1	-3.7	-6	-33	-13	i
COc1ccc(CN2C[C@H](COCc3ccccc3)Oc3cccc(N4CCCC4)c3S2(=O)=O)cc1	-0.7	19	12	21	i
CN1CCN(C(=O)C[C@H]2CC[C@H]3[C@@H](COC[C@@H](O)CN3C(=O)C3CCCC3)O2)CC1	-0.6&-1.0	7&5	9&7	2.0&2.1	i
COc1ccc(NC(=O)Nc2ccc3c(c2)CC(=O)N([C@H](C)CO)C[C@@H](C)[C@H](CN(C)C(=O)NC(C)C)O3)cc1	0.3	3	4	-1.3	i
CC(C)[C@H](N)C(=O)N[C@H]1CCC2C3CC=C4C[C@@H](O)CC[C@]4(C)C3CC[C@@]21C (some centres not stated)	-0.9	-7	-11	-0.6	i
CCOC(=O)[C@]12CCC=C1N(Cc1cccc3ccccc13)C(=O)[C@H](CC(=O)NCCCN1CCCC1=O)C2	1.4	-5	-8	4.8	i
CO[C@@H]1CC[C@H]2CCN(C)C(=O)[C@@H](C)[C@H](OC)CN(C)C(=O)c3cccc(C#N)c3OC[C@@H]1O2	-1.2	0	2	-1.0	i
CO[C@@H]1CN(C)C(=O)c2cc(NC(=O)C3CC3)ccc2OC[C@H](C)N(Cc2cccc(F)c2)C[C@H]1C	2.0	-1	-29	-0.9	i
C[C@H](CO)N1C[C@H](C)[C@@H](CN(C)C(=O)Nc2cccc3ccccc23)Oc2c(NS(=O)(=O)c3ccc(Cl)cc3)cccc2C1=O	2.3	-3	2	-2.2	i
CO[C@H](CN(C)S(=O)(=O)c1cccc(Cl)c1)[C@H](C)CN(C(=O)Nc1ccccc1F)[C@H](C)CO	1.2	-1	-8	-0.3	i
C[C@@H]1CN([C@H](C)CO)C(=O)Cc2cc(NS(=O)(=O)c3ccc(F)cc3)ccc2O[C@@H]1CN(C)S(=O)(=O)c1cccs1	0.3	-4	-11	3.4	i
Cc1noc(C)c1NC(=O)N(C)C[C@H]1Oc2ccc(NS(=O)(=O)c3ccccc3)cc2C(=O)N([C@@H](C)CO)C[C@@H]1C	-9.5	0	1	0.1	i
C[C@H](CO)N1C[C@H](C)[C@H](CN(C)Cc2ccccc2)Oc2ccc(NC(=O)NC3CCCCC3)cc2C1=O	3.7	1	5	0.2	i
CN(C)C(=O)c1cccc(-c2ccc3c(c2)[C@@H]2[C@@H](CCN2C(=O)c2ccncc2)[C@@H](CO)N3C)c1	-2.3	-2	0	-3.5	i
COc1ccc(NC(=O)Nc2ccc3c(c2)CC(=O)N([C@H](C)CO)C[C@@H](C)[C@H](CN(C)S(=O)(=O)c2cn(C)cn2)O3)cc1	-1.5	5	17	-2.3	i
CC=Cc1ccc2n(c1=O)C[C@@H]1[C@@H](CO)[C@H](C(=O)NCC3CC3)[C@H]2N1Cc1ccccc1F (mixture of isomers)	2.1	1	-9	-1.9	i
CN1C(=O)c2cc(NC(=O)C3CC3)ccc2OC[C@@H]2O[C@@H](CC(=O)NC3CCC3)CC[C@@H]21	-1.2	0	1	-1.7	i
C[C@@H]1CN([C@@H](C)CO)C(=O)c2cc(NS(=O)(=O)c3cccs3)ccc2O[C@@H]1CN(C)C(=O)Nc1ccc(F)cc1	47*	-5	14	-1.4	i
COc1ccc2c3c([nH]c2c1)[C@@H](CO)N(C(=O)C1CC1)CC31CN(C)C1	-0.2	3	9	-2.5	i
C[C@H]1CN([C@@H](C)CO)C(=O)c2cc(NC(=O)Cc3cn(C)c4ccccc34)ccc2O[C@@H]1CN(C)C(=O)Nc1ccc2c(c1)OCO2	0.5	4	17	-1.6	i
CC(C)C(NC(=O)c1ccc(Cl)cc1Cl)C(=O)NCCc1ccccn1 (configuration not stated)	0.3	6	7	0.1	i
COc1cccc(S(=O)(=O)N2CCCCN3[C@H](CO)[C@@H](c4ccc(-c5cccnc5)cc4)[C@@H]3C2)c1	-5.4	-6	-28	5.7	i
CC[C@]12c3[nH]c4cc(-c5ccco5)ccc4c3CCN1C(=O)[C@@H](CC(=O)NCCCn1ccnc1)C[C@@H]2C(=O)N1CCN(C(=O)C2CC2)CC1	11	-2	5	-0.6	i
O=C(OCc1cn([C@H]2CN(C(=O)c3cccs3)[C@@H](c3ccc(Cl)cc3)C[C@@H]2O)nn1)c1ccccc1	0.1	-3	-5	0.5	i
C[C@H](CO)N1C[C@H](C)[C@@H](CN(C)C(=O)Nc2cccc(F)c2)Oc2ncc(C#CCN(C)C)cc2C1=O	1.0	3	2	-3.1	i
CC(C)NC(=O)N(C)C[C@@H]1Oc2ncc(C#Cc3ccccc3)cc2C(=O)N([C@H](C)CO)C[C@@H]1C	0.6	0	-6	0.4	i
COc1ccc(C2CC(c3ccccc3F)=NN2c2ccc(S(N)(=O)=O)cc2)cc1 (configuration not stated)	-13	-21	-18	-1.1	i
C[C@@H]1CN([C@H](C)CO)C(=O)c2c(c3ccccc3n2C)-c2ccccc2CO[C@H]1CN(C)C(=O)Nc1ccc2c(c1)OCO2	8.0	0	0	0.1	i
CCN1[C@@H]2c3ccc(-c4cccc(F)c4)c(=O)n3C[C@H]1[C@H](CO)[C@H]2C(=O)N(C)C	-2.1	3	8	-1.3	i
COc1ccc(C(=O)N[C@H](C(=O)OCn2nnc3ccccc3c2=O)C(C)C)cc1	-2.4	-6	-1	-1.2	i
CC(C)NC(=O)Nc1ccc2c(c1)C(=O)N([C@@H](C)CO)C[C@@H](C)[C@H](CN(C)Cc1ccc(Oc3ccccc3)cc1)O2	1.2	-1	-12	-0.4	i
O=C(c1ccc(F)cc1)N1CC(=O)N2[C@H](C1)[C@H](c1ccc(-c3cccnc3)cc1)[C@@H]2CO	-0.9	-2	0	-1.5	i
New compounds follow
SMILES	AF4-AF9 inh	rRNA inh HTS	rRNA inh HTS OD600	rRNA inh HTS RFP	FGF22 binding
CN(C)C(=O)C[C@@H]1CC[C@H]2[C@H](COc3ccc(NC(=O)c4ccc(F)c(F)c4)cc3C(=O)N2C)O1	-0.1	-3	0	-1.5	i
O=C(C[C@H]1CC[C@H](NC(=O)C2CCC2)[C@H](CO)O1)NCc1ccccc1Cl	-0.4	1	3	-2.4	i
NC(=S)N=Nc1c(O)cc(O)c2[nH]c(=O)ccc12	5.5	11	13	-0.4	i
COc1cccc(S(=O)(=O)N(C)C[C@H]2Oc3cc(C#CCN(C)C)ccc3S(=O)(=O)N([C@@H](C)CO)C[C@@H]2C)c1	2.7	-1	-12	0.4	i
O=C(Nc1ccc(-c2ccccc2)cc1)[C@@H]1[C@@H](CO)[C@@H]2Cn3c(cccc3=O)[C@H]1N2Cc1ccccc1	-0.7	-41	-73	3.4	i
COc1ccc(S(=O)(=O)N(C)C[C@@H]2Oc3ncc(-c4cccc(C(F)(F)F)c4)cc3C(=O)N([C@H](C)CO)C[C@@H]2C)cc1	-0.6	3	8	-1.9	i
CN1C(=O)c2cc(NC(=O)Cc3cccs3)ccc2OC[C@H]2O[C@@H](CC(=O)NCc3ccc(-c4ccccc4)cc3)CC[C@@H]21	-14	2	6	-0.2	i
C[C@@H]1CC2=C(C(=O)OC(C)(C)O2)[C@H](c2ccc(F)cc2)O1	-6.9	1	4	-7.0	i
CO[C@@H]1CN(C)C(=O)c2cc(NS(=O)(=O)c3ccccc3)ccc2OC[C@H](C)N(Cc2cccnc2)C[C@@H]1C	1.6	0	5	0.0	i
O=C(C[C@@H]1C=C[C@@H](NC(=O)CC2CC2)[C@@H](CO)O1)NCc1ccc(Cl)cc1	-3.6	3	1	0.6	i
Cc1noc(C)c1NC(=O)Nc1ccc2c(c1)C(=O)N([C@@H](C)CO)C[C@@H](C)[C@H](CN(C)Cc1ccc(C(F)(F)F)cc1)OCCCC[C@H](C)O2	3.9	1	5	0.4	i
Cc1ccc(S(=O)(=O)N(C)C[C@H]2OCCCC[C@H](C)Oc3ccc(NC(=O)Nc4ccc5c(c4)OCO5)cc3C(=O)N([C@H](C)CO)C[C@@H]2C)cc1	2.3	-4	1	-3.2	i
COc1ccc2c3c(n(C)c2c1)[C@@H](CO)N(CC1CC1)CC31CCN(C(=O)CN(C)C)CC1	22	3	1	-2.2	i
O=C(Nc1ccccc1)OCCCCOC(=O)Nc1ccccc1	-2.3	2	19	0.7	i
CC(=O)Nc1ccc2c(c1)C(=O)N(C)[C@@H]1CC[C@H](CC(=O)NCc3ccc(F)cc3)O[C@H]1CO2	-1.6	5	0	-2.0	i
C[C@@H]1CN([C@@H](C)CO)C(=O)Cc2cc(N(C)C)ccc2O[C@H]1CN(C)Cc1ccc(Cl)c(Cl)c1	48*	-29	-46	16	i
COc1cccc(NC(=O)N[C@H]2C=C[C@@H](CC(=O)NCc3ccncn3)O[C@H]2CO)c1	-4.7	-2	10	-2.1	i

Only part of the results is shown; the hit share may differ from the screen's.
